VDR inh: blocks the human vitamin D receptor. VDR-SRC2-3 peptide fluorescence polarization, 2 h. Potency, µM, inactives show max response, negative = inhibition, actives largely listed as inhibitors. hit rate 0.93% among 400,000; active = well fitted inhibition curve with a large enough effect; inconclusive = small, poorly fitted or top-dose-only effect, or another doubt; inactive = no such curve, though single readings can be large or run the other way; note: series mostly up to about 120 µM
Target sequence (P11473 whole entry, looked up): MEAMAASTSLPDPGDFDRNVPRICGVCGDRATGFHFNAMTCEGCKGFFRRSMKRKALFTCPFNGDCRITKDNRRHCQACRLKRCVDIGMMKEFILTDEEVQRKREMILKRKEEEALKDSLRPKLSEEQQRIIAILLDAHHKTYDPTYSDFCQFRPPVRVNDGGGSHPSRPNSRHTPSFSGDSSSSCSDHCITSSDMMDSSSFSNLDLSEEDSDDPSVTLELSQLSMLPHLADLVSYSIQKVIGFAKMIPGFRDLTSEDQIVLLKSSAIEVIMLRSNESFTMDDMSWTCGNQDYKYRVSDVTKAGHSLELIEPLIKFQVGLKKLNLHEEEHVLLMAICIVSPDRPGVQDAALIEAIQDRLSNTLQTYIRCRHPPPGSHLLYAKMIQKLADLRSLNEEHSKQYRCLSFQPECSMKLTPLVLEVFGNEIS
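Fluorescence polarization assay of small-molecule disruption of VDR binding to coregulator peptide SRC2-3. Compounds and controls pin-transferred, then read after 2 h incubation at ambient room temperature.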
The depositor's hits bear a star; ? = inconclusive; & = joins results of further samples. % is set by controls: 0 for no effect and ±100 for the full control effect; potency is the fitted concentration of half-maximal effect. Only part of the results is shown; count on the stated rates, not on these rows.

Cc1ccc(NC(=S)NCCN2CCOCC2)cc1F
  VDR inh: 6%
COc1cccc(SCc2noc(C(=O)NC(C)C)c2C(=O)O)c1
  VDR inh: -5%
Cc1cc(N2CCCCCC2)nc(-c2ccccc2O)n1
  VDR inh: 15%
CCN(C(=S)NCc1ccccc1)c1cccc2ccccc12
  VDR inh: -13%
CCn1c(CC(=O)Nc2ccccc2)nnc1SCC(=O)Nc1ccccc1C(=O)OC
  VDR inh: 12%
CCc1noc(C)c1C(=O)Nc1ccc(F)c(F)c1
  VDR inh: 5%
Cc1cc(C)cc(NC(=O)N(C)Cc2ccccc2)c1
  VDR inh: 21%
CC(=O)N1CCN(c2ccc(NC(=O)c3ccc4c(c3)OCCO4)cc2)CC1
  VDR inh: -24%
COc1ccc2c(c1OC)C(=O)OC2Nc1ncc(Br)cc1Br (stereo not drawn)
  VDR inh: -7%
O=C1CCCc2ccccc2N1Cc1ccccc1Cl
  VDR inh: -19%

N#Cc1ccc2c(c1)nnn2-c1ccccc1
  VDR inh: 10%
O=C(O)c1ccc(NCc2nc3ccccc3n2Cc2ccccc2F)cc1
  VDR inh: 0%
COc1cc(CNc2nc3ccccc3s2)cc(OC)c1OC
  VDR inh: -4%
COCC1CCN(C(=O)c2oc3c(F)cccc3c2C)C1 (stereo not drawn)
  VDR inh: -10%
CCOC(=O)c1cc(-c2ccc(OC)c(S(=O)(=O)NC3CCCCC3)c2)on1
  VDR inh: 4%
COc1cccc(NS(=O)(=O)Cc2ccccc2)c1
  VDR inh: 1%
CCN(C(=O)COc1nc(C)cc(C)c1C#N)c1ccccc1
  VDR inh: 3%
COc1ccccc1NC(=O)CSc1nnc(CC(=O)Nc2cccc(C(F)(F)F)c2)n1C
  VDR inh: 1%
Cc1ccc(NS(=O)(=O)c2ccc(C(=O)N3CCOCC3)cc2)cc1
  VDR inh: -2%
O=C(Nc1ccc(N2CCOCC2)cc1N1CCOCC1)c1ccc(F)cc1
  VDR inh: -1%

CC(NCCS(=O)(=O)c1ccc(Cl)cc1)c1cccc(Cl)c1 (stereo not drawn)
  VDR inh: -12%
CC1CN(C(=O)c2cc(S(=O)(=O)N3CCCC3)ccc2Cl)CC(C)O1 (stereo not drawn)
  VDR inh: -7%
C[C@H](NC(=O)c1[nH]cnc1C(=O)Nc1ccc(CNC(=O)OC(C)(C)C)cc1)C(=O)OCc1ccccc1
  VDR inh: -7%
Cc1cccnc1NC(=O)c1ccc2c(c1)OCCO2
  VDR inh: -14%
O=C(N[C@H]1C/C=C\C(c2ccc(F)cc2)N(Cc2ccccc2)C(=O)C1)OCC1c2ccccc2-c2ccccc21 (stereo partly drawn)
  VDR inh: ?
CC(=O)c1cccc(NC(=O)C2CC(=O)N(CCc3ccccc3)C2)c1 (stereo not drawn)
  VDR inh: 8%
C/C(=N\NC(=O)COc1cccc2ccccc12)c1cccs1
  VDR inh: 0%
O=c1c(C(c2ccc(Cl)cc2)c2c(O)nc3n(c2=O)CCCS3)c(O)nc2n1CCCS2
  VDR inh: 15%
COc1ccccc1N=C1SC(C(=O)Nc2ccc(F)cc2)CC(=O)N1C (stereo not drawn)
  VDR inh: 0%
CCOCCSc1nc2c(c(-c3cccs3)c1C#N)CC/C2=C/c1cccs1
  VDR inh: -11%

C1CCN(Cc2nnnn2C2CCCC2)CC1
  VDR inh: -11%
CN1CCN(C(=O)C2CCN(c3ncc(C(F)(F)F)cc3Cl)CC2)CC1
  VDR inh: -3%
CC(C)C[C@H](N)c1nnc(SCc2ccc(Cl)cc2Cl)o1
  VDR inh: 1%
CC1CCN(C(=O)Nc2cccc(NC(=O)N3CCC(C)CC3)c2)CC1
  VDR inh: 10%
O=[N+]([O-])c1ccccc1Oc1ncccc1[N+](=O)[O-]
  VDR inh: -24%
Cc1ccc2c(c1)c1c(n2CC(O)Cn2nc(C)c(Br)c2C)CCCC1 (stereo not drawn)
  VDR inh: 16%
CC(C)Cn1c(SCC(=O)N2CCCCC2)nc2ccccc2c1=O
  VDR inh: 8%
CCOC(=O)C1=C(C)NC(=S)NC1c1ccc(OC(=O)c2ccco2)cc1 (stereo not drawn)
  VDR inh: -12%
CN(C(=O)COC(=O)/C=C/c1cccs1)C1CCCCC1
  VDR inh: -16%
COC(=O)c1ccc(C(=O)NC2CCCc3c2cnn3-c2cc(F)cc(F)c2)nc1 (stereo not drawn)
  VDR inh: -13%

CC1=C(C(=O)N2CCOCC2)C(c2ccc(OC(F)F)cc2)NC(=S)N1c1ccccc1 (stereo not drawn)
  VDR inh: -17%
NS(=O)(=O)c1ccc(NC(=O)CN2C(=O)c3ccccc3C2=O)cc1
  VDR inh: 29%
COC(=O)c1ccc(NC(C)C(=O)OC)c([N+](=O)[O-])c1 (stereo not drawn)
  VDR inh: 18%
CC(=O)c1cccc(NC(=O)N2CCCC2C(=O)Nc2ccc3c(c2)OCCO3)c1 (stereo not drawn)
  VDR inh: 0%
CCNC(=O)NC(=O)COC(=O)C1CSC2(C)CCC(=O)N12 (stereo not drawn)
  VDR inh: -9%
CCOC(=O)C1=NOC(CNc2ncc(C(F)(F)F)cc2Cl)C1 (stereo not drawn)
  VDR inh: -20%
CN(C)CCCN(C(=O)c1ccc2ccccc2c1)c1nc2cc3c(cc2s1)OCO3
  VDR inh: 11%
CCc1cccc(CC)c1-n1nnc2c(sc3nc(C)cc(C)c32)c1=O
  VDR inh: -4%
NC(=O)c1ccsc1NC(=O)CSc1n[nH]c(N)n1
  VDR inh: -2%
CCC(=O)NCCCC[C@H](NC(=O)OCc1ccccc1)C(=O)Nc1ccc2c(C)cc(=O)oc2c1
  VDR inh: 4%

Shown as a markdown table: entries from further up
| compound | VDR inh |
| --- | --- |
| COc1ccccc1N=C1SC(C(=O)Nc2ccc(F)cc2)CC(=O)N1C (stereo not drawn) | 0% |
| CCOCCSc1nc2c(c(-c3cccs3)c1C#N)CC/C2=C/c1cccs1 | -11% |

The list goes on.
CC(=O)c1c(C)[nH]c(C(=O)OCC(=O)c2c[nH]c3ccccc23)c1C
  VDR inh: -14%
CC(C)COc1ccc(C(=O)OCCN2CCOCC2)cc1
  VDR inh: -8%
O=C(N/N=C\c1ccc(-c2ccccc2[N+](=O)[O-])o1)C1COc2ccccc2O1 (stereo not drawn)
  VDR inh: -10%
Cn1c(CNc2ccccc2O)nc2ccccc21
  VDR inh: 2%
CCOC(=O)C1CCN(S(=O)(=O)c2cnc[nH]2)CC1
  VDR inh: -9%
CC(C)c1nnc(NC(=O)CS(=O)(=O)Cc2ccccc2)s1
  VDR inh: -5%
CCOc1ccc(CN2C(=O)c3ccccc3Sc3ccc(C(=O)OC)cc32)cc1
  VDR inh: 0%
COc1ccccc1C(=O)Nc1nnc(C)s1
  VDR inh: -16%
O=C(COC(=O)[C@@H]1CC(O)CN1S(=O)(=O)c1ccc2c(c1)OCCO2)Nc1cc(F)ccc1F (stereo partly drawn)
  VDR inh: 0%
Cc1cccc(NC(=O)CS(=O)CC(=O)Nc2cnc3ccccc3c2)c1C (stereo not drawn)
  VDR inh: 11%

Single entries from above.
Value of COc1ccccc1C(=O)Nc1nnc(C)s1 under VDR inh: -16%
Value of Cn1c(CNc2ccccc2O)nc2ccccc21 under VDR inh: 2%

Remaining list, next part.
Nc1c(NCCCN2CCOCC2)c2ccccc2oc1=O
  VDR inh: 17%
CCCN(CCC)CCCNC(=O)C(NS(=O)(=O)c1ccc2c(c1)CCC(=O)N2)c1ccccc1 (stereo not drawn)
  VDR inh: -4%
CCOC(=O)c1c(-c2ccc(C)cc2)csc1NC(=O)c1cc2ccccc2oc1=O
  VDR inh: -7%
O=C(c1cccc(S(=O)(=O)N2CCCC2)c1)N1CCN(Cc2ccccc2)CC1
  VDR inh: 3%
COCCCNC(=O)CS(=O)Cc1nc(-c2ccccc2C)oc1C (stereo not drawn)
  VDR inh: 0%
Cc1ccnc(NC(=O)C2COc3ccccc3O2)c1 (stereo not drawn)
  VDR inh: 3%
Cc1nc2ccccc2c2c1C(=O)N(C1CCCCCCC1)C2=O
  VDR inh: 11%
Nn1c(SCC(=O)Nc2ccc3c(c2)OCO3)nnc1C1CCCCC1
  VDR inh: -8%
CCOC(=O)c1c(NC(=O)c2cc(C)on2)sc(C)c1C
  VDR inh: 79µM*
CCCNc1c(NS(=O)(=O)c2ccc(C(C)(C)C)cc2)c(=O)oc2ccccc12
  VDR inh: -21%

Cn1c(=O)n(C)c2cc(CNc3ccc(N4CCOCC4)c(C(=O)O)c3)ccc21
  VDR inh: -19%
O=C(/C=C1\NCC2c3ccccc3CCN2C1=O)c1ccccc1 (stereo not drawn)
  VDR inh: -13%
COc1ccc(C2CN=NC2C(=O)c2ccccc2)cc1 (stereo not drawn)
  VDR inh: 4%
Cc1cc(C)n2nc(SCC(=O)Nc3ccc(F)cc3)nc2n1
  VDR inh: ?
O=C(O)Cc1ccc(NC(=O)Nc2ccc3c(c2)OCO3)cc1
  VDR inh: -1%
CCCCOC(=O)CSc1n[nH]c(=O)[nH]c1=O
  VDR inh: -5%
O=C(Nc1nc2cc3c(cc2s1)OCCO3)c1ccc(N2C(=O)CCC2=O)cc1
  VDR inh: -26%
Cc1c[nH]c(=O)n(CCCN2CCN(c3ccccc3OCC(F)(F)F)CC2)c1=O
  VDR inh: -1%
CC12CCCCC1NS(=O)(=O)OC2 (stereo not drawn)
  VDR inh: -4%
Nc1nc(NC(=O)/C=C\C(=O)O)nn1-c1ccccc1
  VDR inh: 3%

Cc1ccccc1S(=O)(=O)Cc1ccc(C(=O)NC2CCCCC2)o1
  VDR inh: -24%&-5%
Clc1ccc(-c2cnc3ccccc3n2)cc1
  VDR inh: -13%
CCOc1ccccc1CNC(=O)C1CCN(c2nc3ccccc3nc2C(F)(F)F)CC1
  VDR inh: 3%
CNC(=O)/C(C#N)=C/c1ccc(-c2ccc(Cl)cc2)o1
  VDR inh: 13%
CSC(C1CCCC1)n1nnc2ccccc21 (stereo not drawn)
  VDR inh: ?
N#Cc1ccc(/C=C(\C(=O)C(=O)O)c2ccc3ccccc3n2)cc1
  VDR inh: -4%
CCOc1ccc(C2C(C#N)=C(N)N(c3sc4c(c3C#N)CCCC4)C3=C2C(=O)CCC3)cc1 (stereo not drawn)
  VDR inh: 4%
CSc1nc(N)c(C#N)c(-c2ccc(Cl)cc2)c1C#N
  VDR inh: -4%
COC(=O)c1ccccc1NC(=O)c1cc(=O)c2ccc(C)c(C)c2o1
  VDR inh: 10%
C/C(=N\NC(=O)C1COc2ccccc2O1)c1ccc(C)o1 (stereo not drawn)
  VDR inh: -13%

Cc1cccc(CNc2cc(-c3ccc(N(C)C)cc3)ncn2)c1
  VDR inh: -2%
Cn1nnc(NC(=O)c2ccc(Br)o2)n1
  VDR inh: -3%
CN(CC(=O)Nc1ccc(Cl)cc1)C(=O)c1cccc(S(=O)(=O)NCc2ccccc2)c1
  VDR inh: 8%
CCOC(=O)C(C(=O)N(C)C)c1ncc(C(F)(F)F)cc1Cl (stereo not drawn)
  VDR inh: 0%
Cc1ccc(NC(=O)N2CC3CCCN3c3ccccc32)c(C)c1 (stereo not drawn)
  VDR inh: -3%
Cc1ccc(N2CCN(C(=O)c3cn(C)c4ccc(S(=O)(=O)N(C)C)cc4c3=O)CC2C)cc1 (stereo not drawn)
  VDR inh: -4%
CCOc1ccccc1NC(=S)NCc1ccco1
  VDR inh: 1%
CC(=O)NCCNC(=O)C1CCC(CNc2nc(=S)[nH]c3ccccc23)CC1 (stereo not drawn)
  VDR inh: -21%
NC(=O)C1=C[C@H](c2csc3ccccc23)C[C@H](OCCCCO)O1
  VDR inh: -6%
Cc1cc(NC(=O)CSc2nc3sc(C)c(C)c3c(=O)n2C2CCCC2)no1
  VDR inh: 3%

CCC1=Nc2cc(C(=O)NC3CCCC3)ccc2Sc2ccc(Cl)cc21
  VDR inh: -24%
Cc1noc(C)c1NC(=O)Nc1ccc2c(c1)C(=O)N([C@H](C)CO)C[C@H](C)[C@@H](CN(C)S(C)(=O)=O)O2
  VDR inh: 6%
O=C(CCn1nnc2ccccc21)N1CCC(O)(c2cccc(F)c2)CC1
  VDR inh: ?
O=C(OCCN1CCCCC1)c1ccccc1Br
  VDR inh: 14%
O=C(Cn1c(C(=O)NCc2ccco2)cc2sccc21)c1ccccc1
  VDR inh: -11%
Cc1ccc(S(=O)(=O)N2CCOCC2)cc1C(=O)Nc1ccccn1
  VDR inh: -9%
CNc1nc(N)c([N+](=O)[O-])c(Nc2ccccc2OC)n1
  VDR inh: -8%
COc1cccc(-c2n[nH]c(=S)n2Cc2ccco2)c1OC
  VDR inh: 2%
COc1ccc(CCNC(=O)C2CCCN(S(=O)(=O)c3ccc(F)cc3)C2)cc1 (stereo not drawn)
  VDR inh: -8%
O=C(OC1CCN(c2ccc([N+](=O)[O-])cc2)CC1)c1ccccc1
  VDR inh: -8%

Cn1c(=O)c2c(-c3ccccc3)n(N3CCOCC3)cc2n(C)c1=O
  VDR inh: 11%
C=CCN1C(=O)CN=C1Nc1ccccc1
  VDR inh: -14%
Cc1ccc(NC(=O)CN2CCN(C)CC2)cc1Br
  VDR inh: -10%
O=C(/C=C/c1ccc(Cl)cc1)N(Cc1ccccc1)c1ccccn1
  VDR inh: 0%
CCC1(C)Cc2c(sc3nc(NC)n(C)c(=O)c23)CO1 (stereo not drawn)
  VDR inh: -7%
Cc1ccc(C)c(N(CC(=O)Nc2cc(Cl)ccc2Oc2ccccc2)S(C)(=O)=O)c1
  VDR inh: 11%
CCn1cc(C(=O)NCc2ccncc2)c(=O)c2cc(F)c(N3CCN(C(=O)c4ccco4)CC3)cc21
  VDR inh: -4%
O=C(NNC(=O)c1cccs1)c1ccc(Cl)c(Cl)c1
  VDR inh: -4%
Cc1cc(C)nc(CCNC(=O)CC2C(=O)NCCN2Cc2ccccc2)n1 (stereo not drawn)
  VDR inh: -5%
CC(=O)N1CCc2cc(N=NC3=C(O)CC(C)(C)CC3=O)ccc21
  VDR inh: -13%
Cc1cccc(NC(=O)CC2(CC(=O)O)CCCC2)c1
  VDR inh: -16%
Cc1ccc(-c2csc3ncnc(NCCC(=O)O)c23)cc1
  VDR inh: 1%
C=CCn1c(SCC(=O)Nc2ccc3c(c2)OCO3)nnc1-c1ccccc1O
  VDR inh: 2%

High-throughput results: PubChem BioAssay, National Center for Advancing Translational Sciences (NCATS)
